# GIV-Gai inh = inhibitors of GIV GBA-motif binding to rat Galpha-i3; P08753; Galpha-i3/FITC-GIV peptide fluorescence polarization, 90 min; active compounds read low; scaled: aluminum fluoride 0%, vehicle 100%; percent of control (FP), % (test concentration not listed); actives 0.42% (n = 210,000);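 active = replicate mean at 85% of control or lower, very high polarization wells dropped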;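 also: lower values mean more displacement of the GIV peptide from Galpha-i3; wells of about 15 µL received 100 nL stock; the first replicate is given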
# Target sequence (P08753 whole entry, looked up): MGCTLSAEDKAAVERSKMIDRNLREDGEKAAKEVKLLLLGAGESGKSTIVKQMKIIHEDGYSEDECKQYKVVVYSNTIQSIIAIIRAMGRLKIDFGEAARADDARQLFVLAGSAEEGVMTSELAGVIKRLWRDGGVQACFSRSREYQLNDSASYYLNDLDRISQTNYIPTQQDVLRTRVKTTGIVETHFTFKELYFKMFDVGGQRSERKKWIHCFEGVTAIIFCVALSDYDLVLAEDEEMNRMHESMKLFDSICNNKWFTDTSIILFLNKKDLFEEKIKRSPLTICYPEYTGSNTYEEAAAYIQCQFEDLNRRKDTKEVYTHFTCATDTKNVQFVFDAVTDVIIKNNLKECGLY
# Sa growth 42C = S. aureus growth inhibition | S. aureus RN4220 growth, OD600, 20 h, 42 °C; active compounds read low | relative growth, % (test concentration not listed) | actives 0.53% (n = 170,000) | AID 720641;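 active = growth at 42 °C up to 50% and 20 or more points under that at 30 °C, or under 10% at both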;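 also: 300 nL library stock went into each well; scaled to the means of positive and negative controls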
# HCMV NEC inh = cytomegalovirus nuclear egress complex inhibition; HTRF UL50-UL53 interaction, normalized percent inhibition; inhibition, % (concentration not given with the values); actives 0.15% (n = 190,000); AID 1918969;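 active = both replicates at 50% or more, plus weaker picks with an unusually low signal ratio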;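 also: stock transfer was 100 nL into about 20 µL; 0% = negative control wells and 100% = wells with untagged competitor protein; inactives centre near -12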
# Sa growth 42C second temp = second read-out of Sa growth 42C, no call of its own (marks repeat the call); relative growth, %; measured here: growth at 30 °C;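 optical density after 20 h as mean of two plates; 100% = untreated growth and lower means inhibition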
# * hit, by the source's call; · = not tested or not shown. Compounds as they come (roughly 0.83% active in at least one column).
SMILES,GIV-Gai inh,Sa growth 42C,Sa growth 42C second temp,HCMV NEC inh
CNC(=O)N1CCc2cc(S(=O)(=O)Nc3ccc(F)cc3)ccc21,100,·,·,5
CCOC(=O)c1ccc(NC(=O)c2c(C)oc3ccc(OCc4ccccc4)cc23)cc1,108,·,·,-16
O=C(Nc1ccc(S(=O)(=O)NCc2ccco2)cc1)c1ccc(=O)[nH]n1,·,85,89,-38
CCOc1ccc(CNS(=O)(=O)c2cc3c(cc2C)NC(=O)CO3)cc1,99,88,89,·
C=C1C[C@@]23CC[C@H]4[C@@](C)(CCC[C@@]4(C)C(=O)O)[C@@H]2CC[C@]1(O)C3,105,·,·,-12
CCCCC12CN3CC(C)(CN(C1)C3c1cc(Br)ccc1O)C2=O (stereo not given),104,91,80,-31
CCOC(=O)c1cnc(SC(CC)C(=O)Nc2c(C)cc(C)cc2C)nc1N (stereo not given),103,·,·,-6
COC(=O)c1ccccc1NC(=O)[C@H]1O[C@@H]2OC(C)(C)O[C@@H]2[C@H]2OC(C)(C)O[C@H]21,106,109,88,-1
O=C(NC1CCCC1)c1c(O)nc2ccccn2c1=O,97,71,59,-18
CCCOc1ccc(C(=O)Nc2c(NC)c3ccccc3oc2=O)cc1,102,98,93,·
CCc1ccc(NC(=O)CC2C(=O)N(c3cccc(C)c3)C(=O)N2Cc2ccc(F)cc2)cc1 (stereo not given),103,110,95,·
CCn1c(C2CC(=O)N(C(C)(C)C)C2)nc2ccccc21 (stereo not given),101,104,75,·
CC1CCCCN1C(=O)CSc1nc2ccccc2nc1Cc1ccccc1 (stereo not given),102,106,88,·
CCOC(=O)c1ccc(NC(=O)N2Cc3ccccc3C(N3CCOCC3)c3ccccc32)cc1 (stereo not given),97,·,·,9
COc1ccc(N2CCN(c3ncnc4c3nc3n4CCCCC3)CC2)cc1,101,95,89,·
CCOc1ccccc1C(=O)NCc1nc(-c2ccccc2)no1,105,97,82,-12
O=C(c1ccc2c(c1)N(Cc1ccc(Cl)cc1)C(=O)c1ccccc1S2(=O)=O)N1CCc2ccccc21,107,91,86,4
COC(=O)c1ccc(N)s1,·,106,89,-14
O=C(CCn1c(=O)oc2ccccc21)N1CCc2ccccc21,103,79,99,-11
CC(C)c1ccc(NC(=O)c2ccc(-c3csnn3)cc2)cc1,95,111,92,-5
O=S(=O)(Nc1cccc2ccccc12)c1cccs1,97,95,87,-19
Cc1ccc(Sc2c(C(=O)NCc3ccco3)[nH]c3ccccc23)cc1,109,129,71,·
N#C/C(=C\c1ccc(-c2ccccc2C(=O)O)o1)c1nc2ccccc2[nH]1,289,107,86,-96
CN(C(=S)Nc1cccnc1)c1ccc(O)cc1,·,102,90,-30
O=C1COc2cc(S(=O)(=O)NCc3ccco3)c(Cl)cc2N1,109,123,67,·
CN(C)CCOC(=O)CC12CC3CC(C1)CC(CC(=O)OCCN(C)C)(C3)C2,104,119,77,-10
Cc1cc(C)cc(N2C(=O)CC(n3ccnc3)C2=O)c1 (stereo not given),101,86,87,·
O=C(c1cccc(Cl)c1)N1CCOCC1,·,114,77,5
O=C(O)CCCOc1ccc(Cl)cc1,100,86,80,-22
CN(Cc1ccccc1)C(=O)c1c(-c2ccccc2)nnc2ccccc12,98,·,·,-72
O=C(O)CC1SC(=Nc2cccc(C(F)(F)F)c2)NC1=O (stereo not given),101,92,92,·
Cc1cc(C)n2nc(S(=O)(=O)Nc3ccccc3C)nc2n1,·,74,67,-10
Cc1nn(C2CCS(=O)(=O)C2)c(Cl)c1/C=C/C(=O)OCn1nnc2ccccc2c1=O (stereo not given),·,119,70,-8
COc1ccc(-c2nc3c(s2)CN(S(=O)(=O)c2ccc(Br)cc2)CC3)cc1,98,·,·,-21
O=C(NCCCn1ccnc1)c1ccccc1OCc1ccccc1,·,109,91,-6
Cc1cc(=O)nc2c3ccccc3n(CC(=O)N3CCCC3)n12,101,91,90,·
Cc1nnc(SC2CCNCC2)s1,103,97,92,-3
COc1ccc(Nc2nccc(-c3ccc(N)cc3)n2)cc1,101,89,80,-8
Cc1ccc(-c2ccc(/C=C3\Sc4ccccc4C3=O)o2)cc1Cl,105,·,·,-1
CCc1ccc2nc(N3CCC(C(=O)O)CC3)sc2c1,103,104,85,-18
CC(=O)N/C(N)=N\c1nc(C)c2ccc(C)cc2n1,108,89,95,-46
O=C(CNC(=O)c1ccccc1F)OCc1nc2ccc(Cl)cc2n1CCO,·,94,95,-11
CC1CCN(c2ccc(N3CCC(C(=O)N4CCN(C5CCCCC5)CC4)CC3)nn2)CC1,101,·,·,-25
COc1cc(NC(=O)Cn2cnc3c2c(=O)n(C)c(=O)n3C)c(OC)cc1Cl,99,108,91,-28
COc1ccccc1CNC(=O)COc1cc(=O)n(C)c2ccccc12,104,108,91,-25
Cn1c(O)c(C2=NNC(c3ccc(Br)cc3)C2)c(=O)n(C)c1=O (stereo not given),102,·,·,-1
CN1C(=O)C2CN(CCc3ccccc3)CNC2N(C)C1=O (stereo not given),·,78,85,-2
CC1=C(C(=O)Nc2nc3ccccc3s2)C(c2cccc([N+](=O)[O-])c2)C2=C(CCCC2=O)N1 (stereo not given),102,·,·,-36
COc1cccc(NC(=O)N2CCN(c3nc4cccnc4s3)CC2)c1,105,·,·,11
CC(C#N)OC(=O)Cn1cc(C(F)(F)F)ccc1=O (stereo not given),·,95,70,-26
Cc1cc(NC(=O)CSc2ccccc2)no1,103,91,75,-22
COc1ccc(-n2cc3c(c(C#N)c2=N)CC(C)(C)CC3=O)c(OC)c1,104,95,87,-19
COC(=O)c1sc(=S)n(-c2cc(OC)ccc2OC)c1N,105,120,89,·
Nc1ccccc1C(=O)CSc1ccccn1,107,108,90,-26
COc1ccc(/C(=C\c2ccc(Cl)cc2)C(=O)O)cc1OC,98,81,97,-4
Cc1ccccc1Nc1c(-c2ccc(F)cc2)nc2cnccn12,100,·,·,-31
CC(C)(C)OC(=O)N1CCN(C(=O)c2ccc(Oc3cccnc3)o2)CC1,101,97,95,-6
Cc1ccc(C)c(N2CCN(CCCNC(=O)c3cnn(-c4ccccc4)c3C3CCN(C(=O)OC(C)(C)C)CC3)CC2)c1,113,104,107,·
Cc1cccc(-c2noc(CCCC(N)=O)n2)c1,102,104,101,4
CCOC(=O)N1CCc2c(sc(N)c2C(=O)c2ccc(OC)cc2)C1,109,120,77,-17

# Reprinted from the listing (7 entries):
SMILES,GIV-Gai inh,Sa growth 42C,Sa growth 42C second temp,HCMV NEC inh
Nc1ccccc1C(=O)CSc1ccccn1,107,108,90,-26
COc1ccc(/C(=C\c2ccc(Cl)cc2)C(=O)O)cc1OC,98,81,97,-4
Cc1ccccc1Nc1c(-c2ccc(F)cc2)nc2cnccn12,100,·,·,-31
CC(C)(C)OC(=O)N1CCN(C(=O)c2ccc(Oc3cccnc3)o2)CC1,101,97,95,-6
Cc1ccc(C)c(N2CCN(CCCNC(=O)c3cnn(-c4ccccc4)c3C3CCN(C(=O)OC(C)(C)C)CC3)CC2)c1,113,104,107,·
Cc1cccc(-c2noc(CCCC(N)=O)n2)c1,102,104,101,4
CCOC(=O)N1CCc2c(sc(N)c2C(=O)c2ccc(OC)cc2)C1,109,120,77,-17

# Next compounds follow:
SMILES,GIV-Gai inh,Sa growth 42C,Sa growth 42C second temp,HCMV NEC inh
CCC(=O)Nc1nnc(S(=O)(=O)N2CCc3ccccc32)s1,105,101,88,-16
COc1ccc(CNC(=O)CCCN2C(=O)c3ccccc3Sc3ncccc32)cc1,115,·,·,-7
COc1ccc(-c2nnc(SCC(=O)Nc3cccc(C(F)(F)F)c3)s2)cc1,110,103,91,·
O=C(CSc1n[nH]c(-c2ccccc2Cl)n1)NCc1ccc(F)cc1,104,118,91,·
O=C(CC(=O)Nc1ccccn1)Nc1ccccn1,106,·,·,-6
CC1=C(C(=O)OCCc2ccccc2)C(c2cc3c(cc2Br)OCO3)C2=C(CCCC2=O)N1 (stereo not given),103,·,·,-6
Cc1cc(NCCN(C)C)n2nc(C(F)(F)F)c(-c3ccc(F)cc3)c2n1,99,·,·,2
C=CCN1C(=O)/C(=C/c2ccco2)S/C1=N/c1nccs1,115,100,81,-18
CCOc1ccc2nc(NCCNC(=O)c3cc(OC)c(OC)c(OC)c3)c(C#N)cc2c1,101,94,95,-32
Nc1cccc(N2CCn3c(nc4cc(Cl)ccc43)C2)c1,112,·,·,-28
O=C(Cc1nc2ccccc2s1)c1ccc(O)cc1O,·,91,83,-67
O=C1CCc2cc(S(=O)(=O)N3CCCC3)cc3c2N1CCC3,102,99,83,-15
CCC(=O)N1CCc2cc(Br)cc(S(=O)(=O)N3CCCC(C(=O)N(C)c4ccc(Br)cc4)C3)c21 (stereo not given),107,99,93,12
O=C(SC1=NCCS1)c1cccc(Cl)c1,107,90,89,·
N[n+]1cnn(CC(=O)c2ccc(Cl)cc2)c1,105,107,100,-7
Cn1nnc2c(NCc3ccccc3)ncnc21,96,97,91,·
O=C(CSc1nc(-c2ccc(F)cc2)cc(C(F)(F)F)n1)NCCc1ccccc1,105,92,89,-10
COc1ccc2c(CNC3CCCCCC3)c(C(=O)O)[nH]c2c1,114,104,103,-19
CCOC(=O)c1sc2ccccc2c1S(=O)(=O)NCc1ccccc1OC,95,110,86,·
CC1CCN(C(=O)Cn2nc(-c3ccc(Cl)cc3)ccc2=O)CC1,104,119,92,·
C=CCOc1ccc(-c2nc3c(sc(=S)n3CC=C)c(=O)[nH]2)cc1OC,101,92,83,-20
CNC(=O)c1cccc2cccc(I)c12,101,90,90,-2
CCCN(CCC)Cn1nc(-c2ccc3c(c2)OCO3)oc1=S,·,39*,78*,-7
CCc1nnc(NC(=O)c2ccc3c(c2)S(=O)(=O)c2ccccc2C3=O)s1,·,117,45,-43
CN1CCN(c2oc(COc3ccccc3F)nc2C#N)CC1,112,106,96,-3
COc1cccc(-n2c(SCc3ccc(F)cc3)nc3c([nH]c4ccccc43)c2=O)c1,104,95,89,·
C=CCC1CCCCC12NC(=O)N(c1ccccc1)N2 (stereo not given),116,97,79,-16
c1ccc(-n2nnnc2NC2CCCCC2)cc1,·,107,76,8
CC(=O)c1cccc(S(=O)(=O)N2CCN(c3ccccc3F)CC2)c1,100,98,92,-13
CCN(c1ccccc1)S(=O)(=O)c1ccc(Oc2ccc(-n3ccnc3)cc2)nc1,·,95,98,-24

# Arranged by heavy-atom count (lowest first): 7 of the compounds above.
SMILES,GIV-Gai inh,Sa growth 42C,Sa growth 42C second temp,HCMV NEC inh
CNC(=O)c1cccc2cccc(I)c12,101,90,90,-2
c1ccc(-n2nnnc2NC2CCCCC2)cc1,·,107,76,8
C=CCC1CCCCC12NC(=O)N(c1ccccc1)N2 (stereo not given),116,97,79,-16
COc1ccc2c(CNC3CCCCCC3)c(C(=O)O)[nH]c2c1,114,104,103,-19
C=CCOc1ccc(-c2nc3c(sc(=S)n3CC=C)c(=O)[nH]2)cc1OC,101,92,83,-20
CCOC(=O)c1sc2ccccc2c1S(=O)(=O)NCc1ccccc1OC,95,110,86,·
CCN(c1ccccc1)S(=O)(=O)c1ccc(Oc2ccc(-n3ccnc3)cc2)nc1,·,95,98,-24

# (list continues)
SMILES,GIV-Gai inh,Sa growth 42C,Sa growth 42C second temp,HCMV NEC inh
CC(C)(O)c1cn2ccccc2n1,·,100,91,3
O=C(Cn1ccn2nc(-c3ccccc3)cc2c1=O)NCc1ccc2c(c1)OCO2,105,·,·,-9
COc1ccc(-c2cc3c(=O)[nH]nc(SCc4ccc(C)cc4)n3n2)cc1,102,·,·,19
CCCC(NC(=O)c1ccc(Br)o1)c1nc2ccccc2[nH]1 (stereo not given),·,94,85,-27
Cc1cc(NC(=O)CN2C(=O)C(C)(C)c3ccccc32)ccc1Br,107,90,86,·
CCC(=O)Nc1cc(OC)c(OC)c(OC)c1,105,116,97,-14
O=C(Cn1ncc2c3ccccc3n(Cc3cccc(Cl)c3)c2c1=O)N1CCCCC1,145,116,85,-12
COC(=O)c1ccc(NC(=O)CCn2cnnn2)c(C)c1,105,98,85,-22
Cc1ccc(NC(=O)c2oc3ccc(S(=O)(=O)N4CCOCC4)cc3c2C)c(C)c1,95,86,94,·
CCC(=O)N1c2ccc(S(=O)(=O)NCCc3ccccc3)cc2CC1C (stereo not given),103,110,97,-18
CCCN(CCC)C(=O)CC(c1ccccc1)C1CCOC(C)(C)C1 (stereo not given),100,115,88,5
CC(C)C(C)(C#N)NC(=O)CN1CCOCC1 (stereo not given),·,99,89,-18
Cc1ccc(C(=O)Nc2nnc(S(=O)(=O)N(C)Cc3ccco3)s2)cc1,109,143,77,1
